Proteasome disasm: blocks ATP-dependent breakdown of the yeast 26S proteasome | anti-FLAG beads, GFP-proteasome disassembly, flow cytometry | hit rate 0.2% among 24,000 | inhibition of disassembly, % (concentration not given with the values) | AID 751;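 active means above 40%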;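 further: plate controls were ATP control with full disassembly for no effect and ATP-gamma-S intact proteasomes for full effect; higher percent means more bead fluorescence retained so stronger block of disassembly; stock transfer was 100 nL into about 10 µL; wells with too few beads may also be inconclusive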
VCAM-1 up: enhancers of VCAM-1 display on endothelial cells, cell-based, plate reader, pooled HUVEC, TNFa stimulus (AID 455). HUVEC TNFa-induced VCAM-1 immunofluorescence, plate reader; numbers were filed only for top-ranked candidate wells. augmentation, % at 5 µM. hit rate 0.2% among 10,000;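 active means a compound raising TNF-alpha-driven VCAM-1 surface staining, with its hit status upheld on visual or statistical review; inactive means the rest, including hits rejected on review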;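 further: 0% = TNFa with vehicle and 100% = strongest image-checked hit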
An asterisk follows results filed as active; i = inactive; x = no result given; & = joins results of further samples.

SMILES	Proteasome disasm	VCAM-1 up
O=C1OC(c2ccc(Br)cc2)=N/C1=C\N1CCCCC1	3.0	x
N#Cc1nc(-c2ccccc2F)oc1NC1CCCCC1	0.0	x
O=C(CCn1c(=S)[nH]c2ccccc2c1=O)NCCCN1CCCC1=O	-9.2	x
CCCCNC(=O)CCCCCNS(=O)(=O)c1ccc(OC)cc1	1.5	x
Cc1ccc(-c2nc(C3CCCN(S(=O)(=O)c4ccc(C(F)(F)F)cc4)C3)no2)cc1 (stereo not given)	-1.7	x
Cc1oc(-c2cccc(Cl)c2)nc1CN1CCCC(C(=O)NCCCN2CCOCC2)C1 (stereo not given)	3.5	x
COCCOC(=O)c1[nH]c2c(c1C)C(=O)CC(c1ccco1)C2 (stereo not given)	0.1	i
CCN(Cc1nc2cc(OC)c(OC)cc2c(=O)[nH]1)C(=O)c1ccc(S(=O)(=O)N(C)C)cc1	-0.7	i
CCCCC(=O)NCCNc1nc2c(c(=O)n(C)c(=O)n2C)n1Cc1ccccc1	1.3	i
CC1CC(=O)N(CC(=O)NCc2ccco2)c2ccccc2S1 (stereo not given)	-1.6	x
COc1ccc(OCc2nc(C#N)c(N3CCN(c4ccc(OC)cc4)CC3)o2)cc1	-0.5	i
COc1ccc(NC(=O)C2CCCN(S(=O)(=O)c3cccc4nonc34)C2)c(OC)c1 (stereo not given)	3.4	x
CCN(CC)c1ccc(NC(=O)CN2CCN(c3nc(C)cc(C)n3)CC2)cc1	2.6	x
COC(=O)c1c(N)nc(C)n1-c1ccc(OC)cc1	-1.4	i
N#CCCCCn1c(-c2cncs2)nc2ccccc21	-0.2	i
CN1CCN(S(=O)(=O)c2ccc3ccccc3c2)CC1	-0.2	x
CC(=O)n1cc(-c2ccncc2)c2ccccc21	0.7	i
COc1ccc(-c2cc(C(=O)N3CCCc4ccccc43)no2)cc1	-0.2	x
O=S(=O)(c1cnc[nH]1)N1CCc2ccccc21	2.5	x
O=C(c1cc2ccccc2o1)N1CCN=C1SCc1cccnc1	0.0	x
O=C(CSc1ncnc2c1nnn2-c1ccc(F)cc1)N1CCN(c2ccccc2)CC1	-0.7	x
CC(=O)C1=C(O)C(=O)N(c2nnn(C)n2)C1c1cccs1 (stereo not given)	0.8	x
CC(C)C(NC(=O)C1CCCCC1)C(=O)Nc1ccccn1 (stereo not given)	0.0	x
CCN(CCCNC(=O)COc1cc(=O)n(C)c2ccccc12)c1cccc(C)c1	2.0	x
O=S(=O)(NCCO)c1cccc2cccnc12	1.0	x

Some of these compounds in order of length of the SMILES, highest first:
SMILES	Proteasome disasm	VCAM-1 up
Cc1oc(-c2cccc(Cl)c2)nc1CN1CCCC(C(=O)NCCCN2CCOCC2)C1 (stereo not given)	3.5	x
CCCCC(=O)NCCNc1nc2c(c(=O)n(C)c(=O)n2C)n1Cc1ccccc1	1.3	i
N#CCCCCn1c(-c2cncs2)nc2ccccc21	-0.2	i

More compounds
SMILES	Proteasome disasm	VCAM-1 up
CCOC(=O)c1cccc(C(=O)OCC)n1	1.7	x
CCN(CC)c1ccc(CNc2ccc(Br)cn2)cc1	4.9	i
O=C(O)C1CCCN1S(=O)(=O)c1ccc2ccccc2c1 (stereo not given)	0.0	i
O=C(CCS(=O)(=O)c1cccc2nsnc12)N1CCN(Cc2ccc3c(c2)OCO3)CC1	4.8	i
CN(C)c1ccc(NC(=O)c2cccc(N3C(=O)C4C5C=CC(C5)C4C3=O)c2)cc1 (stereo not given)	0.6	x
COCCn1c(C)cc(C(=O)COC(=O)c2ccc(N3CCCC3=O)cc2)c1C	3.4	i
COc1ccccc1-c1cc(C(=O)Nc2cc(C)nn2-c2ccccc2)no1	-0.3	i
O=C(OCc1ccc2c(c1)OCO2)c1ccc(S(=O)(=O)N2CCCCC2)cc1	1.4	i
CCOC(=O)c1c(C)c(C(=O)N2CCN(c3cccc(Cl)c3)CC2)c(C)n1C	0.5	x
O=c1[nH][nH]c2nc(C(F)(F)F)cc(C(F)(F)F)c12	0.0	x
CS(=O)(=O)c1ccc2nc(NC(=O)C3C4C=CC(C4)C3C(=O)O)sc2c1 (stereo not given)	-0.7	i
O=C(NCCC1=CCCCC1)N[C@@H](Cc1ccccc1)C(=O)O	1.6	i
Cc1cccc(CN2CCNC2=O)c1	-1.1	x
O=C(CCS(=O)(=O)Cc1ccccc1F)N1CCc2ccccc2C1	-2.6	x
Nc1ccc(C(=O)O)c(O)c1	0.4&0.6	i
O=C(O)c1ccc(-c2ccco2)n1Cc1ccccc1	0.8	x
COc1ccc(N(CC(=O)Nc2nc3ccc(C)cc3s2)S(=O)(=O)c2c(C)nn(C)c2C)cc1	0.6	x
COc1ccc(CCNC(=O)C2=COCCO2)cc1	3.6	i
COc1ccc(OC)c2[nH]c(=O)c(CCNS(=O)(=O)c3ccc(C)cc3)cc12	-2.5	x
CCC1(c2ccc(F)cc2)NC(=O)N(CC(=O)c2ccc[nH]2)C1=O (stereo not given)	1.9	i
Cc1ccc(Cl)cc1N1CCN(C(=O)C2CCN(S(=O)(=O)c3cnc[nH]3)CC2)CC1	-0.7	x
Cc1ccc(Cn2nnc3c(=O)[nH]c(C4CCN(S(=O)(=O)c5cc(C)ccc5C)CC4)nc32)cc1	-0.3	x
CC(C)(C)NC(=O)C(c1ccco1)N(C(=O)Cn1nnc(-c2ccc(F)cc2)n1)c1ccccc1 (stereo not given)	-1.6	i
CCN(CC)c1ncnc2sc(C(=O)N3CCN(c4ccccc4)CC3)c(C)c12	0.8	x
O=C(CCCn1c(=S)[nH]c2cc3c(cc2c1=O)OCO3)N1CCN(c2ccc(F)cc2)CC1	2.0	x
Following part.
SMILES	Proteasome disasm	VCAM-1 up
CCC(C)(C)NC(=O)CN(Cc1ccc2c(c1)OCO2)C(=O)CCC(=O)Nc1ccccn1	0.9	i
O=C1c2ccccc2C(Nc2ccc3c(c2)OCO3)N1Cc1ccc2c(c1)OCO2 (stereo not given)	-1.0	i
C[C@]12CCC(=O)C=C1CC[C@@H]1[C@@H]2[C@@H](O)C[C@@]2(C)[C@H]1CC[C@]2(O)C(=O)CO	-0.3	i
CN1CCN(C(=O)c2ccc3c(c2)NC(=O)C(N2CCOCC2)S3)CC1 (stereo not given)	-0.1	x
CCOC(=O)CC(=O)CSc1nnc(Cn2c(=O)sc3ccccc32)n1C	1.2	x
O=C(C1CCCN(S(=O)(=O)c2ccc(Br)s2)C1)N1CCCCCC1 (stereo not given)	-0.8	i
CCC(C)NC(=O)CNC(=O)Cn1c(C)cc2ccccc2c1=O (stereo not given)	-0.9	x
O=C(N1CCN(c2ccccc2F)CC1)C12CC3CC(CC(C3)C1)C2	-2.1	i
c1ccc2c(c1)nc(NC1CCCCC1)c1nncn12	0.0	i
CCN1C(=O)c2ccccc2S(=O)c2ccc(C(=O)NCCCN3CCCC3=O)cc21 (stereo not given)	-2.2	x
CCOC(=O)N1CCN(CCC(=O)Nc2ccc(C)c(Br)c2)CC1	-1.4	x
O=C(Nc1ccc(Cl)cc1)C1CCCN(S(=O)(=O)c2cnc[nH]2)C1 (stereo not given)	-2.1	x
CCn1c(CSc2ncccn2)nnc1SCC(=O)N1c2ccccc2CC1C (stereo not given)	0.2	i
CCn1c(C(=O)N2CCCC(C(=O)O)C2)cc2sccc21 (stereo not given)	-0.6	i
Clc1ccc(-c2nnc(-c3ccco3)o2)cc1	-0.4	x
Cc1cccc(NC(=O)CS(=O)(=O)c2c[nH]c3ccccc23)c1C	-0.4	x
COc1ccc(CCNC(=O)C2CCCN(S(=O)(=O)c3cnc[nH]3)C2)cc1OC (stereo not given)	-1.1	x
CC1CCc2cc(F)ccc2N1C(=O)CCC(=O)O (stereo not given)	-1.2	x
CCCSc1nc2c(c(=O)[nH]c(=O)n2C)n1CCc1ccccc1	0.9	i
O=C(CCn1c(=O)[nH]c2ccccc2c1=O)N1CCN(c2ccc(Cl)cc2)CC1	2.3	x
COC(=O)NCc1ccc(CNC(=O)OC)cc1	-0.5	x
CCN=C1SC(CC(=O)Nc2ccc(C(F)(F)F)cc2)C(=O)N1CC (stereo not given)	-0.1	x
CCC(Sc1nc2c(c(=O)[nH]1)CCC2)C(=O)Nc1cccc(OC)c1 (stereo not given)	1.1	x
COc1ccc(C2C(C(=O)Nc3cccnc3)=C(C)Nc3nc(-c4ccco4)nn32)cc1 (stereo not given)	3.1	x
COC(=O)c1cc2sccc2n1CC(=O)Nc1ccc(OC)c(OC)c1OC	-1.1	x

Random excerpt: 7 entries already listed.
SMILES	Proteasome disasm	VCAM-1 up
O=C1OC(c2ccc(Br)cc2)=N/C1=C\N1CCCCC1	3.0	x
CCn1c(C(=O)N2CCCC(C(=O)O)C2)cc2sccc21 (stereo not given)	-0.6	i
CCOC(=O)CC(=O)CSc1nnc(Cn2c(=O)sc3ccccc32)n1C	1.2	x
O=C(NCCC1=CCCCC1)N[C@@H](Cc1ccccc1)C(=O)O	1.6	i
O=C(O)c1ccc(-c2ccco2)n1Cc1ccccc1	0.8	x
c1ccc2c(c1)nc(NC1CCCCC1)c1nncn12	0.0	i
Cc1ccc(Cn2nnc3c(=O)[nH]c(C4CCN(S(=O)(=O)c5cc(C)ccc5C)CC4)nc32)cc1	-0.3	x

Next entries follow.
SMILES	Proteasome disasm	VCAM-1 up
COc1ccc(OC)c(N2C(N)=NC(N)=NC23CCCC3)c1	-1.1	x
CCn1cc(C(=O)NCCCN2CC(C)CC(C)C2)c2cc(OC)c(OC)cc2c1=O (stereo not given)	-0.7	x
CCn1cc(C(=O)NCCCN(C)c2ccccc2)c(=O)c2cc(S(=O)(=O)N(C)C)ccc21	12	x
CC1CN(C(=O)c2ccc3c(c2)OCO3)OC(c2ccccc2)O1 (stereo not given)	-1.1	x
CCN(CC)S(=O)(=O)c1ccc(C(=O)Nc2ncn(Cc3ccccc3)n2)cc1	0.3	x
C=CCOC(=O)C1=C(C)OC(N)=C(C#N)C1c1ccc2c(c1)OCO2 (stereo not given)	-0.8	i
Cc1cc(-c2ccco2)n(CC(=O)NCCCc2ccccc2)n1	-0.4	x
COc1ccccc1N1CCN(CCCNC(=O)Nc2ccccc2)CC1	0.2	i
Cc1cc(C)cc(-c2nc(-c3ccncc3)no2)c1	14	x
Cc1ccc(N2C(N)=NC(N)=NC2(C)C)c(C)c1	0.1	x
CC1CCN(C(=O)CCNS(=O)(=O)c2ccccc2)CC1	0.1	i
CCn1cc(C(=O)NCC2CCCO2)c2cc(OC)c(OC)cc2c1=O (stereo not given)	-2.5	x
Cc1ccc(N2CCN(C(=O)CNS(=O)(=O)c3ccc(Br)s3)CC2C)cc1 (stereo not given)	3.8	x
CCSc1nnc(NC(=O)CSc2nc3c(c(=O)n2-c2ccccc2)SCC3)s1	-1.2	x
COc1ccc(OC)c2[nH]c(=O)c(CCNC(=O)c3ccc(S(=O)(=O)N(C)C)cc3)cc12	-2.2	x
CCC(C(=O)Nc1ncccn1)(C(F)(F)F)C(F)(F)F	-0.3	i
CC(=O)N(C)C1(c2nnnn2CCOC(=O)Nc2ccc(Cl)cc2)CCCCC1	0.0	i
COc1ccccc1CN1C(=S)SC(C)(C)C1NO (stereo not given)	-1.2	i
C/C(=N\O)C(=O)NCc1ccncc1	-4.1	x
CC1CCCCN1C(=O)c1cc(-c2ccc(Cl)c(Cl)c2)on1 (stereo not given)	-0.7	x
CN(c1ccccc1)S(=O)(=O)c1ccc(C(=O)Nc2nnc(-c3ccc(F)cc3)o2)cc1	0.2	x
Cc1ccc2nc(NC(=O)C3CCN(S(=O)(=O)c4cccc5nsnc45)CC3)sc2c1	-0.1	i
COc1ccc(NC(C)=O)cc1NC(=O)CCn1c(=O)sc2ccccc21	-0.3	x
Cn1c(=O)c2c(nc(N3CCOCC3)n2CCCNC2=NCCC2)n(C)c1=O	-0.8	x
O=C(CN1CC(c2ccccc2)CC1=O)Nc1ccc2c(c1)OCO2 (stereo not given)	-4.1	x
Next records:
SMILES	Proteasome disasm	VCAM-1 up
COC(=O)C1=C(C(=O)c2ccccc2)C(c2ccc(O)c(OC)c2)n2nnnc2N1 (stereo not given)	-1.1	x
Cc1ccc(S(=O)(=O)C2(C(=O)N3CCCCCC3)CC2)cc1	2.3	i
NS(=O)(=O)c1ccc(CCNC(=O)c2cccnc2)cc1	-1.3	i
O=S(=O)(NCCCCCNS(=O)(=O)c1ccccc1)c1ccccc1	0.3	i
CCN(C(=O)CSc1nc2nc(C)cc(C)n2n1)c1cccc(C)c1	-0.2	x
Cc1ccccc1CS(=O)(=O)Cc1ccc(C(=O)NCc2ccccn2)o1	-0.2	x
O=c1c2ccccc2nnn1CSc1nnc2sc3ccccc3n12	16	i
Cc1cc(NC(=O)c2cc3ccccc3o2)cc(C)c1OCC(=O)N1CCOCC1	-0.6	i
Cc1ccc(-c2cc(C(=O)Nc3cc(C)ccc3C)[nH]n2)c(O)c1	-0.6	24
CCCCNC(=O)c1sc(=S)n2c1[nH]c(=O)c1ccccc12	-1.7	x
COc1ccccc1NC(=O)CS(=O)(=O)c1cccc2nsnc12	-0.3	x
Cn1c(C(=O)NCc2ccccn2)cc2c(=O)n3ccccc3nc21	-0.1	x
COc1cccc(C(c2nnnn2CCc2ccccc2)N2CCN(c3ccccc3)CC2)c1OC (stereo not given)	2.3	i
CCN(CC)CCNC(=O)C1c2cc(OC)c(OC)cc2C(=O)N2CCc3ccccc3C12 (stereo not given)	0.6	x
COc1ccc2cc3cc(C(=O)Nc4ccccc4N4CCN(C)CC4)oc3nc2c1	-1.1	x
O=C(NC1CC2CCC1C2)c1ccc(CN2CCOCC2)cc1 (stereo not given)	-2.8	i
COc1ccc(Nc2cc(C(=O)NCCCN3CCN(C)CC3)c3ccccc3n2)cc1	0.4	x

Screens from PubChem BioAssay.

Some of the compounds tested (hit frequency here may not be typical).
